# DUX4 txn inh – inhibitors of DUX4-driven ZSCAN4 reporter expression, primary screen, 293T cells, Gaussia and Italica luciferase. 293T-iDUX4 ZSCAN4-Gaussia luciferase reporter, 24 h; stronger effect = lower value. activity change, negative = inhibition, % (concentration not given with the values). hit rate 0.8% among 37,000;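 active means -10% or lower and over 25 points stronger than a control reporter; inconclusive means -10% or lower with a smaller gap; inactive means above -10%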;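 further: 0% = median of neutral control wells and -100% = median of positive control wells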
# DUX4 txn inh difference – second read-out of DUX4 txn inh, no call of its own (marks repeat the call); Gaussia minus Italica difference, %; measured here: selective DUX4 reporter inhibition;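 worked out from the two reporters; negative = selective loss of the DUX4 reporter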
# DUX4 txn inh control – further read-out of DUX4 txn inh, marked with its call; activity change, negative = inhibition, %; measured here: Italica tet-on control reporter;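 0 = neutral control and -100 = positive control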
# The depositor's hits bear a star; u = inconclusive; x = no result given; & = joins results of further samples; ! = not active in a repeat.
DUX4 txn inh	DUX4 txn inh difference	DUX4 txn inh control	mol
u	x	x	O=C(C[C@H]1CC[C@H]2[C@@H](COC[C@@H](O)CN2Cc2cccc(C(F)(F)F)c2)O1)NCc1ccc(F)cc1
3	6	-2.6	COc1cccc(S(=O)(=O)N2[C@@H]3CNC[C@H]2C3c2ccc(-c3ccccc3F)cc2)c1 (stereo not given in full)
8	6	2.0	CN(C)c1ccc2c(c1)[C@H]1C[C@H](CC(=O)NCc3ccccn3)O[C@H](CO)[C@H]1O2
4	0	3.7	COc1cccc(NC(=O)N2C[C@H](O)COC[C@H]3O[C@@H](CC(=O)NC4CCCC4)CC[C@@H]32)c1
3	1	1.7	CO[C@H]1CN(C)C(=O)c2ccc(NC(=O)c3ccccc3F)cc2OC[C@H](C)N(C)C[C@H]1C
14	5	8.7	CCC(=O)N1CC[C@@H]2[C@@H](CO)Nc3ccc(-c4ccccc4)cc3[C@@H]21
-7	-13	5.2	COCCNC(=O)[C@H]1[C@H](CO)[C@H]2Cn3c(ccc(-c4ccc(F)cc4)c3=O)[C@@H]1N2C
5	3	1.9	CC(=O)NC[C@@H]1[C@H](c2ccc(-c3cccnc3)cc2)[C@H](CO)N1C(=O)C1CCC1
1	2	-0.6	C[C@H]1CN([C@@H](C)CO)C(=O)c2cc(C#Cc3ccccc3F)cnc2O[C@H]1CN(C)C(=O)Cc1cccnc1
0	1	-1.3	N#C[C@H]1[C@@H](c2ccc(C3=CCCCC3)cc2)[C@@H](CO)N1C(=O)Cc1ccncc1
2	-5	6.8	N#Cc1ccc(-c2ccc3c(c2)[C@@H]2[C@@H](CCN2C(=O)CN2CCOCC2)[C@@H](CO)N3)cc1
-3	-3	0.7	C[C@H](CO)N1C[C@H](C)[C@@H](CN(C)CC2CC2)Oc2ccc(NC(=O)CCC(F)(F)F)cc2CC1=O
u	x	x	COc1ccc2c3c([nH]c2c1)[C@@H](CO)N(Cc1ccccn1)CC31CN(C(=O)c2ccccn2)C1
14	12	1.6	CN(C)C(=O)c1ccc(-c2ccccc2[C@@H]2[C@@H](C#N)N(C(=O)C3CC3)[C@H]2CO)cc1
10	2	8.4	CN(C)CC(=O)Nc1ccc2c(c1)[C@H]1C[C@H](CC(=O)N3CCCCC3)O[C@@H](CO)[C@H]1O2
2	-4	5.7	CCCNC(=O)C[C@@H]1CC[C@@H]2[C@@H](COc3ccc(NC(=O)Cc4cccs4)cc3C(=O)N2C)O1
6	0	6.4	COc1ccc(NC(=O)N[C@H]2CC[C@H](CCNC(=O)c3ccccc3F)O[C@H]2CO)cc1
5	4	0.7	COc1ccc(C#Cc2ccc3c(c2)[C@H]2[C@H](CCN2C(C)=O)[C@@H](CO)N3C)cc1
9	0	8.8	CCNC(=O)C[C@H]1CC[C@@H]2[C@H](COC[C@@H](O)CN2C(=O)C2CCOCC2)O1
-1	-1	-0.5	CC(C)NC(=O)N1C[C@H]2[C@@H](c3ccccc31)[C@@H](CO)N2C(=O)c1ccccc1
u	x	x	CN1CCN(C(=O)C[C@H]2C[C@H]3c4cc(NC(=O)Nc5ccc(C(F)(F)F)cc5)ccc4O[C@H]3[C@H](CO)O2)CC1
u	-7	-1.1	Cc1ccccc1-c1ccc(C2[C@@H]3CN(C(=O)NC4CCCCC4)C[C@H]2N3)cc1 (stereo not given in full)
20	12	8.5	COCC(=O)N1CC2(C1)CN(C(=O)NC1CCCC1)[C@H](CO)c1c2c2ccc(OC)cc2n1C
-1	-5	4.2	CCCNC(=O)Nc1ccc2c(c1)OC[C@H](C)N(Cc1cncnc1)C[C@@H](C)[C@H](OC)CN(C)C2=O
-36*!	-37*	1.7*	COc1cccc(S(=O)(=O)N2C[C@@H]3N[C@H](C2)C3c2ccc(-c3ccccc3C)cc2)c1 (stereo not given in full)

# (next part)
DUX4 txn inh	DUX4 txn inh difference	DUX4 txn inh control	mol
0	1	-0.5	CCCNC(=O)C[C@@H]1CC[C@H]2[C@@H](COC[C@@H](O)CN2C(=O)CC)O1
12	6	5.6	CCCNC(=O)N1[C@H](CO)[C@H](c2ccccc2)C12CN(C(=O)C1CCCCC1)C2
7	3	4.4	COc1ccc2c3c([nH]c2c1)[C@@H](CO)N(C(C)=O)CC31CCN(C(=O)Nc2ccc(F)cc2F)CC1
-1	0	-1.2	CN1C(=O)c2cc(NC(=O)c3cnccn3)ccc2OC[C@@H]2O[C@H](CC(=O)NCC3CCCCC3)CC[C@H]21
7	5	2.7	O=C(C1CCOCC1)N1CC(=O)N2[C@H](C1)[C@H](c1ccc(C#CC3CCCCC3)cc1)[C@@H]2CO
2	0	1.7	CO[C@@H](CN(C)C(=O)Nc1ccc(F)cc1)[C@H](C)CN(Cc1ccccc1Cl)[C@H](C)CO
-2	-4	2.0	CCN1[C@@H]2c3ccc(-c4ccccc4OC)c(=O)n3C[C@H]1[C@H](CO)[C@H]2C(=O)N[C@@H](C)c1ccccc1
7	3	3.3	CCCNC(=O)C[C@H]1CC[C@H]2[C@@H](COC[C@@H](O)CN2Cc2cccc(F)c2)O1
-9	-4	-4.8	C[C@@H]1CN([C@H](C)CO)C(=O)c2c(c3ccccc3n2C)-c2ccccc2CO[C@@H]1CN(C)Cc1ccc2c(c1)OCCN2C
0	-2	2.2	CNC[C@H]1Oc2ncc(-c3ccccc3C)cc2C(=O)N([C@H](C)CO)C[C@H]1C
11	5	5.5	COc1ccc2c3c(n(C)c2c1)[C@H](CO)N(Cc1ccc2c(c1)OCO2)CC31CCN(C(C)=O)CC1
-1	7	-8.4	C[C@@H]1CN([C@H](C)CO)C(=O)CCCn2cc(nn2)CO[C@@H]1CN(C)S(=O)(=O)c1ccc(-c2ccccc2)cc1
-3	0	-2.6	CCNC(=O)[C@H]1[C@H](CO)[C@H]2Cn3c(ccc(C4=CCCCC4)c3=O)[C@@H]1N2Cc1cocn1
12	5	6.8	CCCNC(=O)N1C[C@@H](O)COC[C@@H]2O[C@@H](CC(=O)N[C@H]3CCN(Cc4ccccc4)C3)CC[C@H]21
7	4	2.7	CNC(=O)C[C@H]1CC[C@H]2[C@@H](COC[C@H](O)CN2S(=O)(=O)c2cccc(Cl)c2)O1
6	3	2.7	C[C@H](CO)N1C[C@H](C)[C@H](CN(C)Cc2ccccc2O)OCc2cn(nn2)CCCC1=O
13	12	0.7	CCC(=O)N1CC2(CCN(C(=O)Cc3ccccc3)CC2)c2c(n(C)c3cc(OC)ccc23)[C@H]1CO
4	9	-5.0	CO[C@@H](CN(C)C(=O)c1cnccn1)[C@H](C)CN([C@H](C)CO)S(=O)(=O)c1ccc(C)cc1
4	1	2.9	C[C@@H]1CCCCO[C@@H](CN(C)S(=O)(=O)c2cccs2)[C@@H](C)CN([C@@H](C)CO)C(=O)c2cc(N(C)C)ccc2O1
8	9	-1.3	O=C(C[C@H]1C=C[C@@H](NS(=O)(=O)c2ccc(F)cc2)[C@@H](CO)O1)N1CCc2ccccc2C1
0	-5	5.0	CN1C(=O)c2cc(NC(=O)c3cscn3)ccc2OC[C@@H]2O[C@@H](CC(=O)NCC3CC3)CC[C@H]21
2	-1	2.5	COc1ccccc1-c1ccc([C@H]2[C@H](C#N)N(C(=O)C3CCC3)[C@H]2CO)cc1
0	4	-4.4	CNC[C@@H]1OCc2cn(nn2)CCCC(=O)N([C@H](C)CO)C[C@H]1C
7	5	2.2	C[C@H]1CN([C@@H](C)CO)C(=O)c2cc(C#Cc3cccnc3)cnc2O[C@@H]1CN(C)S(C)(=O)=O
-2	1	-3.1	CN1C[C@@H]2[C@H](c3ccccc31)[C@@H](CO)N2C(=O)c1ccccn1

# Profiles as entered above. Order of values: DUX4 txn inh, DUX4 txn inh difference, DUX4 txn inh control
# C[C@H]1CN([C@@H](C)CO)C(=O)c2cc(C#Cc3cccnc3)cnc2O[C@@H]1CN(C)S(C)(=O)=O in the list: 7, 5, 2.2
# CO[C@@H](CN(C)C(=O)c1cnccn1)[C@H](C)CN([C@H](C)CO)S(=O)(=O)c1ccc(C)cc1 in the list: 4, 9, -5.0
# CNC(=O)C[C@H]1CC[C@H]2[C@@H](COC[C@H](O)CN2S(=O)(=O)c2cccc(Cl)c2)O1 in the list: 7, 4, 2.7

# Following part.
DUX4 txn inh	DUX4 txn inh difference	DUX4 txn inh control	mol
0	10	-10	OC[C@@H]1[C@@H](c2ccc(C#Cc3ccccc3F)cc2)[C@H]2CN(Cc3cncnc3)CCCCN12
3	3	0.5	C[C@@H]1CCCCO[C@H](CN(C)Cc2ccc(Cl)c(Cl)c2)[C@@H](C)CN([C@H](C)CO)C(=O)c2cc(NS(=O)(=O)c3cccs3)ccc2O1
0	-5	5.2	Cc1ccc(S(=O)(=O)Nc2cccc3c2O[C@@H](CN(C)C(=O)Nc2ccc(C(F)(F)F)cc2)[C@@H](C)CN([C@@H](C)CO)C3=O)cc1
u	x	x	CO[C@@H](C(=O)N(C)C[C@@H]1OCc2ccccc2-c2c(n(C)c3ccccc23)C(=O)N([C@H](C)CO)C[C@H]1C)c1ccccc1
2	-6	8.4	COc1cccc(-c2ccc([C@H]3[C@H](CO)N4C(=O)CN(C(=O)NC(C)C)C[C@@H]34)cc2)c1
2	-4	5.5	COc1ccccc1CN1[C@@H]2CN(C(=O)c3ccc(F)cc3)c3ccccc3[C@@H]2[C@@H]1CO
8	2	6.2	CN(C)C(=O)[C@@H]1[C@@H](CO)[C@@H]2Cn3c(ccc(-c4ccncc4)c3=O)[C@H]1N2CC1CCCC1
6	4	2.1	COc1ccc2c3c(n(C)c2c1)[C@H](CO)N(C(=O)Nc1ccc(F)cc1)CC31CN(S(=O)(=O)c2cn(C)cn2)C1
10	1	8.7	COCCNC(=O)C[C@H]1C[C@@H]2c3cc(NC(=O)CC4CC4)ccc3O[C@@H]2[C@H](CO)O1
-2	-9	6.9	O=C(C[C@H]1C[C@@H]2c3cc(NC(=O)NC4CCCC4)ccc3O[C@@H]2[C@H](CO)O1)NCc1cccc(F)c1
0	-1	1.5	C[C@@H]1CCCCO[C@@H](CN(C)Cc2ccc3c(c2)OCO3)[C@H](C)CN([C@H](C)CO)C(=O)c2cc(NC(=O)CCC(F)(F)F)ccc2O1
6&-9	8&-19	-2.1&9.9	N#Cc1cccc(-c2ccc(C3[C@H]4CNC[C@@H]3N4S(=O)(=O)c3ccccc3)cc2)c1 (stereo not given in full)
u	x	x	O=C(C[C@@H]1CC[C@@H]2[C@H](COC[C@H](O)CN2Cc2cccc(-c3ccncc3)c2)O1)N1CCOCC1
-9	-3	-6.5	O=C(C[C@H]1C[C@H]2c3cc(NC(=O)Nc4ccc(C(F)(F)F)cc4)ccc3O[C@H]2[C@@H](CO)O1)NCc1ccccn1
-6	-11	4.9	C[C@@H]1CN([C@@H](C)CO)C(=O)c2c(c3ccccc3n2C)-c2ccccc2CO[C@H]1CN(C)C(=O)Nc1ccc(-c2ccccc2)cc1
9	6	3.7	CCCNC(=O)C[C@H]1CC[C@@H]2[C@H](COC[C@H](O)CN2Cc2cccc(F)c2)O1
u	x	x	O=C(Nc1ccc(F)cc1)N1C[C@H]2[C@@H](c3ccccc31)[C@H](CO)N2C(=O)Cc1ccccc1
0	-14	14	O=C(C[C@H]1CC[C@H]2[C@@H](COC[C@H](O)CN2C(=O)Nc2ccc(Cl)cc2)O1)N1CCCCC1
0	-3	3.3	COC(=O)C[C@H]1C[C@H]2c3cc(NC(=O)c4ccc5c(c4)OCO5)ccc3O[C@H]2[C@@H](CO)O1
14	15	-0.6	C[C@H](CO)N1C[C@H](C)[C@@H](CN(C)C(=O)CCN(C)C)OCc2ccccc2-c2ccccc2C1=O
-3	1	-4.2	CCCNC(=O)Nc1ccc2c(c1)C(=O)N(C)C[C@@H](OC)[C@H](C)CN(Cc1cccnc1)[C@@H](C)CO2
-3	-11	8.1	CNC[C@H]1Oc2ccc(N(C)C)cc2C(=O)N([C@H](C)CO)C[C@H]1C
2	2	0.0	CCC(=O)N1[C@@H](CO)[C@@H]2c3ccccc3N(C(=O)c3cnccn3)C[C@@H]21
-9	9	-17	O=C(C[C@H]1CC[C@@H]2[C@H](COC[C@@H](O)CN2C(=O)c2ccccc2F)O1)N1CCN(c2ccccc2)CC1
-1	1	-1.1	O=C(Nc1nccs1)[C@@H]1[C@@H](CO)[C@@H]2Cn3c(cccc3=O)[C@@H]2N1C(=O)C1CCCC1
-5	-3	-1.4	C[C@H]1CN([C@@H](C)CO)C(=O)Cc2cc(NC(=O)CCN3CCOCC3)ccc2O[C@@H]1CN(C)Cc1ccc(C(=O)O)cc1
0	0	0.3	Cc1noc(C)c1NC(=O)Nc1ccc2c(c1)C(=O)N([C@@H](C)CO)C[C@H](C)[C@H](CN(C)C(=O)NC1CCCCC1)OCCCC[C@H](C)O2
6	2	4.7	O=C(C[C@H]1C[C@@H]2c3cc(NC(=O)Nc4ccccc4F)ccc3O[C@@H]2[C@H](CO)O1)NC1CCCCC1

# A draw from above in order of length of the SMILES, largest number first.
DUX4 txn inh	DUX4 txn inh difference	DUX4 txn inh control	mol
-5	-3	-1.4	C[C@H]1CN([C@@H](C)CO)C(=O)Cc2cc(NC(=O)CCN3CCOCC3)ccc2O[C@@H]1CN(C)Cc1ccc(C(=O)O)cc1
10	1	8.7	COCCNC(=O)C[C@H]1C[C@@H]2c3cc(NC(=O)CC4CC4)ccc3O[C@@H]2[C@H](CO)O1
-3	-11	8.1	CNC[C@H]1Oc2ccc(N(C)C)cc2C(=O)N([C@H](C)CO)C[C@H]1C

# Looked up by compound from the list above (2):
DUX4 txn inh	DUX4 txn inh difference	DUX4 txn inh control	mol
0	-3	3.3	COC(=O)C[C@H]1C[C@H]2c3cc(NC(=O)c4ccc5c(c4)OCO5)ccc3O[C@H]2[C@@H](CO)O1
0	-1	1.5	C[C@@H]1CCCCO[C@@H](CN(C)Cc2ccc3c(c2)OCO3)[C@H](C)CN([C@H](C)CO)C(=O)c2cc(NC(=O)CCC(F)(F)F)ccc2O1

# Some of the compounds tested, so the mix of outcomes need not match the whole.
